WNV protease inh – blocks West Nile virus NS2B-NS3 protease activity; WNV NS2B-NS3 protease, fluorogenic substrate Ex360/Em465; active compounds read low; z-score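 (tested at a level between 10 and 100 µM)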; actives 0.18% (n = 65,000); AID 577;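 active = z-score at -3 or under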;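 also: score is relative to mean and spread of the compound wells of a plate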
Target sequence (P06935 1371-1501 limits assumed): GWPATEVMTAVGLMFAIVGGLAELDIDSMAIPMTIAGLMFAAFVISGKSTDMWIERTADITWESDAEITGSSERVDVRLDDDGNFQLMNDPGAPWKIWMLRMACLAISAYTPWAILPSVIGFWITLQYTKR
Target sequence (P06935 1502-1679 limits assumed): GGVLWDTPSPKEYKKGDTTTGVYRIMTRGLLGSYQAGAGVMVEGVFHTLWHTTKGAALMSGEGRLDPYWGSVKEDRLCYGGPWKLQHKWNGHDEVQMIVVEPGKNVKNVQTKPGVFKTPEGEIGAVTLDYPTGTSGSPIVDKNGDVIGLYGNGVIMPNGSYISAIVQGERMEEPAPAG
MT1-MMP reporter – inhibitors of MT1-MMP promoter transcription, cell-based, luciferase reporter, luminescence (AID 618). MT1-MMP promoter luciferase reporter cells, luminescence. calls from a first round at 10 µM; hits with a dose series show EC50 in µM. actives 0.62% (n = 87,000);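 active = over half of the reporter light lost at 10 µM or EC50 under 50 µM; inactive = the rest and hits that failed the dose series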;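 also: actives suppress MT1-MMP promoter-driven transcription so potencies describe inhibitors; HT1080 fibrosarcoma cells; overnight exposure; toxic or luciferase-blocking compounds were not removed from the actives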
Hsc70 ATP site – small molecules displacing fluorescent ligand from Hsc70 – biochemical, fluorescence polarization, primary screen (AID 568). Hsc70 fluorescence polarization, probe displacement; higher % means a stronger effect; strong numbers were not always called active. displacement, % at 20 µM, or IC50 in µM where a hit was titrated. 83,000 tested, under 10 active;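 active = displacement above 50% without optical interference and an IC50 on retest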;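 also: ATPase domain with a fluorescein-tagged ATP probe; 0% = vehicle and 100% = excess ADP; read after one hour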
Numbers without * were called inactive; i = inactive; / = not tested or not shown.

A first look (2 entries):
SMILES | WNV protease inh | MT1-MMP reporter | Hsc70 ATP site
COC(=O)[C@H](CCSC)NC(=O)NCc1ccccc1F | / | i | -1.2%
COCCc1nnc(NC(=O)Cc2ccccc2)s1 | -0.81 | i | -2.0%

Results, previewed entries included:
SMILES | WNV protease inh | MT1-MMP reporter | Hsc70 ATP site
COC(=O)[C@H](CCSC)NC(=O)NCc1ccccc1F | / | i | -1.2%
COCCc1nnc(NC(=O)Cc2ccccc2)s1 | -0.81 | i | -2.0%
CCSc1nnc(Cn2c(=O)sc3ccccc32)n1-c1ccc(OC)cc1 | 0.5 | i | 0.4%
O=C(CSc1nnc(-c2cccnc2)n1Cc1ccccc1)NCc1ccccc1 | / | i | -1.5%
CNC(=O)COC(=O)c1ccccc1Oc1ccccc1 | / | i | -8.1%
CCC(C)NC(=O)CC(NS(=O)(=O)c1ccc(Cl)cc1)c1ccco1 (centres undefined) | 1.4 | i | -3.7%
COc1cc2c(cc1NC(=O)CCCN1C(=O)CCC1=O)oc1ccccc12 | -0.13 | i | 3.8%
CC1(C)S[C@@H]2[C@H](NC(=O)[C@H](C(=O)O)c3ccsc3)C(=O)N2[C@H]1C(=O)O | -0.41 | i | 3.0%
CCCC1(C(=O)O)NC(c2ccccc2O)C2C(=O)N(Cc3ccccc3)C(=O)C21 (centres undefined) | 1.5 | i | 0.7%
CCOC(=O)c1ccc(N2C(=O)C(O)=C(C(C)=O)C2c2ccc(O)c(OC)c2)cc1 (centres undefined) | -2.4 | i | 5.1%
O=C(CCCn1c(=O)oc2ccccc21)N1CCc2ccccc2C1 | 0.19 | i | 11%
Cc1cc(C)nc(/N=C2\NC(=O)CC(C(=O)O)N2CCc2c[nH]c3ccccc23)n1 (centres undefined) | -0.23 | i | 3.5%
COC(=O)c1ccc(NC(=O)CCn2cccc2)cc1 | 2.9 | i | 0.2%
Cc1ccc(S(=O)(=O)C2(C(=O)N3CCCC(C)C3)CC2)cc1 (centres undefined) | 0.91 | i | 1.3%
CCOc1ccccc1N(C(=O)CNC(=O)c1ccco1)C(C(=O)NC1CCCC1)c1cccnc1 (centres undefined) | 0.51 | i | -12%
CCc1ccc(CCC(=O)Nc2ccc(C(C)=O)cc2)o1 | / | i | -0.7%
CN(C)CCNc1nc(-c2ccco2)c2c(c1C#N)CC(C)(C)OC2 | 0.18 | i | -5.0%
Cc1c(NCc2cc(Cl)cc(Cl)c2O)c(=O)n(-c2ccccc2)n1C | / | i | 4.0%
COc1ccc(C(C(=O)NC2CCCC2)N2CCc3ccccc32)cc1 (centres undefined) | -2 | i | 3.9%
COc1ccccc1Oc1ccc(S(=O)(=O)N2CCCC2)cc1 | -0.95 | i | -3.3%
Cc1cc(C)nc(SCc2nc3nc(C)cc(C)n3c2Br)n1 | / | i | 2.5%
CS(=O)(=O)N1CCc2cc(C(=O)O)ccc21 | -0.95 | i | 0.0%
N#CC1=C2SCN(Cc3ccco3)CN2C(=O)CC1c1c(F)cccc1Cl (centres undefined) | 1.4 | i | 0.7%
CC(C)(C)NC(=O)C(Cc1ccccc1)NS(=O)(=O)c1ccc2c(c1)CCC(=O)N2 (centres undefined) | -0.25 | i | 1.6%
COc1ccc(/C(O)=C2/C(=O)C(=O)N(CCN(C)C)C2c2ccc(C)cc2)cc1Cl (centres undefined) | 0.7 | i | 0.6%
CC1=CS/C(=C(/C#N)C(=O)N2CCCCC2)N1c1ccccc1 | -0.89 | i | -3.3%
O=C(Cn1cc(C(=O)COc2ccccc2)c2ccccc21)NCc1ccco1 | -0.48 | i | -86%
O=C(NC1(C(F)(F)F)C(=O)Nc2c1c(=O)[nH]c(=O)n2-c1ccccc1)c1ccncc1 (centres undefined) | / | i | -3.5%
O=C(O)c1cc(-c2ccccn2)n[nH]1 | -0.15 | i | 6.7%
C=CCn1c(N2CCCCCC2)nc2c1c(=O)n(C)c(=O)n2C | 0.28 | i | 6.0%

In a second layout: two of the compounds above.
> Cc1c(NCc2cc(Cl)cc(Cl)c2O)c(=O)n(-c2ccccc2)n1C
  WNV protease inh: /	MT1-MMP reporter: i	Hsc70 ATP site: 4.0%

> COc1ccc(C(C(=O)NC2CCCC2)N2CCc3ccccc32)cc1 (centres undefined)
  WNV protease inh: -2	MT1-MMP reporter: i	Hsc70 ATP site: 3.9%

(more compounds)
SMILES | WNV protease inh | MT1-MMP reporter | Hsc70 ATP site
CN(C)c1ccc(C2OC(=O)C3(CCCC3)C(=O)C2(C)C)cc1 (centres undefined) | -0.41 | i | 1.9%
OC(CNCC1CCCO1)COc1ccc(OCC(O)CNCC2CCCO2)cc1 (centres undefined) | / | i | 3.7%
NC(=O)c1sc2nc3c(c(-c4cccs4)c2c1N)CCCCC3 | / | i | 1.1%
Cc1ccc(C2c3c(oc4cc(C)c(C)cc4c3=O)C(=O)N2CCCN2CCOCC2)cc1 (centres undefined) | 2.1 | i | 4.8%
CCOC(=O)c1sc(NS(=O)(=O)c2ccc(C)cc2)nc1C | / | i | -2.1%
CCOc1ccc(OCC)c(NC(=O)CN2CCC(NC(=O)c3cccc(F)c3)CC2)c1 | 0.09 | i | 3.3%
Cc1ccc(-n2c3c(cc(C(=O)NC4CCSC4=O)c2=O)C(=O)CC(C)(C)C3)cc1 (centres undefined) | 0.17 | i | 1.6%
O=C(CSc1nnc(Cc2ccccc2)o1)N1CCCc2ccccc21 | -0.84 | i | -3.8%
CCOc1cccc(N(C(=O)Cc2cccs2)C(C(=O)NC2CCCCC2)c2cccn2C)c1 (centres undefined) | / | i | 4.0%
CCOC(=O)c1[nH]c2ccc(Br)cc2c1NC(=O)CCN1CCCCC1 | -0.01 | i | -1.0%
Cc1ccccc1C1CC(=O)NC2=C1C(=O)CCC2 (centres undefined) | -0.24 | i | 6.8%
O=c1c2ccccc2nnn1CSc1nnc(COc2ccc(Cl)cc2)n1Cc1ccco1 | 0.16 | i | -2.0%
COC(=O)[C@H](Cc1ccccc1)NC(=O)NCc1cccs1 | / | i | 1.2%
COc1cc(N2CCOCC2)ncn1 | -1 | i | -8.3%
O=C1C2C3CCCC3=C3CCCC3C2C(=O)N1c1cccc(Cl)c1 (centres undefined) | -0.01 | i | 6.8%

6 of the compounds above, with two lines to a compound:
Each structure is followed by: WNV protease inh, MT1-MMP reporter, Hsc70 ATP site
NC(=O)c1sc2nc3c(c(-c4cccs4)c2c1N)CCCCC3
    /, i, 1.1%
Cc1ccc(C2c3c(oc4cc(C)c(C)cc4c3=O)C(=O)N2CCCN2CCOCC2)cc1 (centres undefined)
    2.1, i, 4.8%
CCOC(=O)c1sc(NS(=O)(=O)c2ccc(C)cc2)nc1C
    /, i, -2.1%
CCOc1ccc(OCC)c(NC(=O)CN2CCC(NC(=O)c3cccc(F)c3)CC2)c1
    0.09, i, 3.3%
Cc1ccc(-n2c3c(cc(C(=O)NC4CCSC4=O)c2=O)C(=O)CC(C)(C)C3)cc1 (centres undefined)
    0.17, i, 1.6%
O=C(CSc1nnc(Cc2ccccc2)o1)N1CCCc2ccccc21
    -0.84, i, -3.8%

More results follow.
SMILES | WNV protease inh | MT1-MMP reporter | Hsc70 ATP site
CC(=O)c1ccc(NC2c3ncccc3C(=O)N2Cc2ccc(F)cc2)cc1 (centres undefined) | 1.8 | i | 4.5%
CCOC(=O)C1(C(=O)OCC)C(c2ccccc2)CC(O)N1C(C)=O (centres undefined) | -0.05 | i | -3.0%
O=C(C(c1ccccc1)c1ccccc1)N1CCOCC1 | -0.55 | i | 2.3%
CCOc1ccc(S(=O)(=O)Nc2ccc(S(=O)(=O)Nc3cc(OC)ccc3OC)cc2)cc1 | / | i | 8.3%
CCOC(=O)c1cc2c(=O)n3cccc(C)c3nc2n(Cc2ccccc2Cl)c1=N | -0.11 | i | -29%
Cn1cccc1Cc1nnc(SCC(=O)NCc2ccco2)n1CCc1ccccc1 | 0.23 | i | -5.5%
CCOc1ccc(N2C(=O)CC(N3CCC(NC(=O)Nc4ccccc4)CC3)C2=O)cc1 (centres undefined) | -0.21 | i | 3.7%
O=C1CC(c2ccco2)CC(O)=C1C=NCC1CCNCC1 (centres undefined) | -0.94 | i | 5.0%
CCOc1ccc(N2CC(C(=O)NCc3cccc(C)c3)CC2=O)cc1 (centres undefined) | 0.6 | i | 6.7%
Cc1ccc(-c2nnc(-c3ccccc3)o2)cc1 | / | i | 0.3%
NC(=S)c1ccc(C(N)=S)o1 | -0.23 | i | 1.9%
Cc1cc(=O)n2nc(N3CCCC3C(=O)NCCCN3CC(C)CC(C)C3)sc2n1 (centres undefined) | -0.94 | i | -2.1%
CCN(CC)c1ccc(NC(=O)c2cc(OC)cc(OC)c2)c(C)c1 | 0.71 | i | -0.3%
COC(=O)c1ccc(S(=O)(=O)c2ccc(C(=O)OC)s2)s1 | 0.52 | i | -1.4%
CC1CCN(C(=O)CN(c2ccc(Cl)c(C(F)(F)F)c2)S(C)(=O)=O)CC1 | / | i | -0.9%
Cc1cc(NC(=O)CSc2nc3ccccc3c(=O)n2Cc2ccc(F)cc2)no1 | 0.84 | i | -0.4%
COc1ccc(-c2nnc(CSc3nc4ccccc4c(=O)n3C)o2)cc1OC | -0.29 | i | -1.1%
CC(=O)OCCNc1cc(N2CCN(C)CC2)c2noc3c2c1C(=O)c1ccccc1-3 | -0.47 | i | 19%
CCOC(=O)C1=C(O)C(Nc2nccs2)(C(F)(F)F)N=C1C (centres undefined) | 1.4 | i | 1.5%
COc1ccc(S(=O)(=O)N2CCN(C(=O)CCC3CCCC3)CC2)cc1 | 2.2 | i | 0.1%
CCCCn1c(=O)c(-c2ccccc2)c(O)c2ccccc21 | 0.31 | i | -1.8%
Cc1ccccc1CS(=O)(=O)c1nnc([C@H](Cc2ccccc2)NC(=O)OC(C)(C)C)o1 | / | i | 0.6%
CCCCC(CC)CNS(=O)(=O)c1ccc2c(c1)CCN2C(=O)CCC(=O)O (centres undefined) | -0.44 | i | 1.2%
O=C(O)CCn1c(C2CCCCC2)nc2ccccc21 | 0.57 | i | 2.8%
COc1cc(S(=O)(=O)N2CCN3CCCC3C2)ccc1-n1cnnn1 (centres undefined) | 0.49 | i | -2.2%
O=C(COC(=O)c1ccc(S(=O)(=O)NCc2ccco2)cc1)NCCC1=CCCCC1 | -0.45 | i | -15%
COc1cccc(N2C(=O)N(c3ccccc3)C3CS(=O)(=O)CC32)c1 (centres undefined) | -0.38 | i | -9.9%
CCOC(=O)Cn1nnnc1C(CC)N(Cc1cc2c(C)cc(C)cc2[nH]c1=O)C1CCCC1 (centres undefined) | -0.81 | i | 1.1%
Fc1ccccc1N1CCN(C(c2cccs2)c2nnnn2CCc2ccccc2)CC1 (centres undefined) | 1.1 | i | 4.9%
O=C(CSc1nc2ccccc2[nH]1)N1CCN(c2ccc(F)cc2)CC1 | 0.58 | i | 0.7%
O=C(NCc1ccc2c(c1)OCO2)C1CCCN1C(=O)Nc1cccc(F)c1 (centres undefined) | -1.2 | i | 4.3%
O=C(NC(=O)c1ccccc1)NC1(C(F)(F)F)OCCO1 | -1.4 | i | 0.9%
O=C(NCc1ccco1)c1ccc2c(c1)N(Cc1ccccc1)C(=O)CS2=O (centres undefined) | 1 | i | -1.8%
CC(C)NC(=O)Cn1cc(C#N)c2cc(Br)ccc21 | 0.59 | i | 4.8%
CCOc1cccc(NC(=O)Cn2nc(-c3ccc4c(c3)OCCO4)ccc2=O)c1 | / | i | 4.2%
COCC(=O)N(Cc1ccccc1)c1ccccn1 | 0.14 | i | 2.2%
CN(C)S(=O)(=O)N1CCN(c2ccc(Cl)cc2)CC1 | 0.69 | i | -13%
Cc1cnc(C(=O)OCC(=O)Nc2ccc(Oc3ccccc3)cc2)cn1 | 0.13 | i | 3.6%
CCn1c(COc2ccccc2OC)nnc1SCC#N | 1.8 | i | -6.2%
COc1cc(C(=O)OCC(=O)Nc2ccc3c(c2)OC(F)(F)O3)ccc1OCc1c(C)noc1C | / | i | 3.0%
CCOc1ccccc1N1CCN(C(=O)Nc2cccc(Cl)c2)CC1 | -0.86 | i | -2.7%
CCNc1nc(NC(C)C)nc(OCCOC(=O)c2ccccc2)n1 | / | i | -3.7%
CCOc1cc(S(=O)(=O)NCc2ccccn2)ccc1Cl | / | i | 7.4%
Cc1cc(S(=O)(=O)N(Cc2ccc3c(c2)OCO3)CC2CCCO2)ccc1-n1cnnn1 (centres undefined) | -1.2 | i | -2.9%
Cn1c(=NC(=O)C2CC2)sc2cccc(F)c21 | 1 | i | 4.5%
COc1ccccc1C1CC(c2ccc(F)cc2)Nc2ncnn21 (centres undefined) | -1.3 | i | -5.3%
CCc1cc2c(NCC3CCCO3)ncnc2s1 (centres undefined) | 2 | i | 0.0%
O=C(c1ccc(F)cc1)c1cc2ccccc2o1 | 2.3 | i | 3.3%
Cc1cc(C)n(-c2nnc(C)n2/N=C/c2ccccc2F)n1 | -0.07 | i | -4.5%
CCN(CC)C(=O)C1CCCN(Cc2ccc(F)c(F)c2)C1 (centres undefined) | -1.5 | i | -2.4%
C=CCSc1nc2ccccc2c(=O)[nH]1 | 0.01 | i | 1.0%
CC(C)(C)OC(=O)N1CC2Cc3[nH]c(=O)ccc3C(C2)C1 (centres undefined) | 1.7 | i | 0.3%
CC(Nc1nc(N2CCN(S(C)(=O)=O)CC2)nc2ccccc12)c1ccccc1 (centres undefined) | 0.43 | i | -1.6%
COCCn1nnnc1CN1C2CCCC1CC(NC(C)=O)C2 (centres undefined) | 0.49 | i | 1.5%
CN1CCN(C(=O)N2c3ccccc3C=Cc3ccccc32)CC1 | 1.9 | i | -1.0%

Screens from PubChem BioAssay.
